Source: PubChem BioAssay (several laboratories)
LANA-H2B inh: blockers of LANA interaction with H2A/H2B – biochemical, FP readout, HTS, primary screen; Protein LANA1 (Human herpesvirus 8 type P (isolate GK18)), Q9QR71; cell-free LANA-H2A/H2B peptide, fluorescence polarization; inhibition, % (no concentration beside the values); 320,000 tested, 0.6% active; AID 2629, 2010; in the data active = inhibition mostly above about 10%, no sharp cut-off; inactive = mostly below about 6.7%;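 also: stock transfer was 7.5 nL into about 10 µL; 0% = median of vehicle wells and 100% = median of positive control wells; one replicate is shown; the record names a cut of 25% in any replicate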
Target sequence (Q9QR71 whole entry, looked up): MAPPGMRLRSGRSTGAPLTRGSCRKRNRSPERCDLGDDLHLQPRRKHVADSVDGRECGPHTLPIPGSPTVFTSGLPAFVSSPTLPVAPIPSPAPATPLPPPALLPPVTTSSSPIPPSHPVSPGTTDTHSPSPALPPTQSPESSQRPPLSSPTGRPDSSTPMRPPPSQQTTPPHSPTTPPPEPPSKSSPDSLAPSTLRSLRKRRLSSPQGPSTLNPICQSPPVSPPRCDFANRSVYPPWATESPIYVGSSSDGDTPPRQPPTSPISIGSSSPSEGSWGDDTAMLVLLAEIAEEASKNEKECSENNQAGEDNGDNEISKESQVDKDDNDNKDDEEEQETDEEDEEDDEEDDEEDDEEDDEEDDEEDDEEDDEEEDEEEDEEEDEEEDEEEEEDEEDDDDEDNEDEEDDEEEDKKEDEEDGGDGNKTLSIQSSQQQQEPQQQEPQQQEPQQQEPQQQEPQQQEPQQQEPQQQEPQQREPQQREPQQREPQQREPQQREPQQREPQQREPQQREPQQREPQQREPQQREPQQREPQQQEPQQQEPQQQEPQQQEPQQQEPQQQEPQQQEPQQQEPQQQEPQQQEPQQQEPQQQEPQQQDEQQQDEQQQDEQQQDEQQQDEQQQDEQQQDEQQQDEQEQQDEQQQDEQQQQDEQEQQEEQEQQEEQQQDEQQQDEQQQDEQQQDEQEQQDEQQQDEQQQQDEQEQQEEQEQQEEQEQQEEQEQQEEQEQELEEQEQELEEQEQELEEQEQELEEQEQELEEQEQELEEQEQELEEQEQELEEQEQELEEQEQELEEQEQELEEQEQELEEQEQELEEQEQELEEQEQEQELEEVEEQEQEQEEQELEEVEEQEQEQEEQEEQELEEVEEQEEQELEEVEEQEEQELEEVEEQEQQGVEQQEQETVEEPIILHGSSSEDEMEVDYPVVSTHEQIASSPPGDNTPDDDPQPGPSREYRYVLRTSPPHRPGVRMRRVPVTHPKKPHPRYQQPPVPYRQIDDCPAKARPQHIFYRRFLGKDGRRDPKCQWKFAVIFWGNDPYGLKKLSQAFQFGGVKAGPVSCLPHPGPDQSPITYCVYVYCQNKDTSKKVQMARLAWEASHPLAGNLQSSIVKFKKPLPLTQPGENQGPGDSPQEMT
A1 inh: caspase 3/7 activation in MEF A1-2A-BIM cells, primary screen, A1 inhibitor project, cell-based, luminescence, HTS; caspase activation, % (no concentration beside the values); Caspase-Glo 3/7 luminescence, 3 h; percent of clofoctol response, vehicle zero; 330,000 tested, 0.066% active; AID 2462, 2010;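 active = over half of replicate activation scores above 10%, or exactly half above 10 with the replicate mean above 10; inconclusive = replicate mean below 10 yet half the replicates above 10; inactive = over half of replicates below 10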;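 also: wells of about 30 µL received 50 nL stock; many hits fall short of the cut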
B2AR ag: beta2AR agonists driving receptor internalization, primary screen, cell-based, FAP fluorogen, flow cytometry; Am2.2-beta2AR cells; reference of the scale not given here; 340,000 tested, 0.43% active; AID 504454, 2011; Beta-2 adrenergic receptor (Homo sapiens), P07550; response, % (test concentration not listed);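 active = response above a set limit, near 3 SD of response in nonfluorescent compounds, cut at about 42% in these data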;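 also: stock transfer was 100 nL into about 11 µL; a reference agonist was the positive control; negative values mostly stem from fluorescent compounds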
HNF4A DNA FP: change in binding of human HNF4A to DNA, primary screen, biochemical, fluorescence polarization, FITC-DNA. 1 h. AID 1224865, 2016. activity change, % at 10 µM. Hepatocyte nuclear factor 4-alpha (Homo sapiens), P41235. 360,000 tested, 0.3% active; in the data active = activity change above about 30%, passing the limit was not always enough;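 also: controls were the assay level and a saturating level of protein; the project sought stronger binding though the title names inhibitors; some compounds called inactive have numbers as strong as hits; positive values seem to mean higher polarization but the record does not say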
Vif TR-FRET: inhibitors of Vif binding to APOBEC3G peptide, primary screen, biochemical, TR-FRET, GST-Vif 1-94, biotin-A3G peptide, dose response retest (AID 1117319); Virion infectivity factor (Human immunodeficiency virus type 1 group M subtype B (isolate …; TR-FRET GST-Vif / biotin-A3G peptide binding; higher % means a stronger effect; test concentration not given here; strong numbers were not always called active; one-dose inhibition, %; IC50 in µM for titrated hits; 260,000 tested, 0.57% active;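 active = above the screen mean plus three standard deviations and confirmed in dose response; inconclusive = results disagree or hit not tested in dose response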;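 also: Vif residues 1-94 fused to GST binding biotinylated APOBEC3G peptide 110-148; 0% = full assay without inhibitor and 100% = GST in place of GST-Vif; retest series ran down from 100 µM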
E coli growth: E. coli growth inhibition, primary screen, OD600; OD600 absorbance (no concentration beside the values); Escherichia coli growth, 23 h; hits give low values; 330,000 tested, 0.21% active;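 active = OD600 absorbance below the run mean of sample wells minus 3.6 SD, in any replicate, cut at about 0.56 in these data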;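 also: stock transfer was 300 nL into about 60 µL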
UCH37 DUB inh: inhibitors of human UCH37 deubiquitinase, primary screen, biochemical, Ub-AMC cleavage, fluorescence | Ubiquitin carboxyl-terminal hydrolase isozyme L5 (Homo sapiens), Q9Y5K5 | purified proteasome/UCH37 | inhibition, % (concentration not given with the values) | 330,000 tested, 0.33% active | AID 588478, 2011;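 active = mean of two replicates above 20%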;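 also: 0% = compound-free wells with enzyme and 100% = wells lacking proteasome; stock transfer was 100 nL into about 20 µL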
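assay system = human UCH37 enzyme supplied as purified proteasome complex | amount = proteasome at 0.15 nM in the dispensed enzyme solution | schedule = 30 min compound-proteasome preincubation then 25 min substrate reaction, room temperature | measured by = fluorescence, ex 355 nm, em 460 nm | benchmarks = no-proteasome wells (full inhibition) and compound-free wells (no inhibition)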
Active calls of the source: *; ? = inconclusive; · = no result given; & = joins results of further samples.

SMILES	LANA-H2B inh	A1 inh	B2AR ag	HNF4A DNA FP	Vif TR-FRET	E coli growth	UCH37 DUB inh
CCC1CCCCN1CCCNC(=O)c1cc2c(=O)oc3ccc(C)cc3c2s1 (stereo unspecified)	0.4	0.1	24	6.7	·	0.66	-26
Cc1cccc(-n2cc[nH]c2=S)c1	-1.2	-0.1	-5	2.5	-2%	0.72	3.7
COC(=O)CN1C(=O)C(O)(CC(=O)c2ccccc2)c2ccccc21 (stereo unspecified)	5.8	0.5	-2	-0.9	15%	0.68	-2.1
Cc1cc(Br)ccc1NC(=O)CN1C(=O)C2CC=CCC2C1=O (stereo unspecified)	4.6	0.1	-5	-0.2	8%	0.64	0.6
CCCN(Cc1cc2cccc(C)c2[nH]c1=O)C(=O)c1cccc(OC)c1	1.8	-0.9	3	3.5	·	0.66	-2.3
Cn1c(SCC(=O)Nc2ccc(NC(=O)c3ccccc3)cc2)nnc1-c1ccncc1	1.9	0.2	-4	-3.2	·	0.68	2.5
Cc1ccc2[nH]c(O)c(N=Nc3nc4ccccc4s3)c2c1	0.4	-0.1	13	1.8	20%	0.71	5.8
Cc1ccc(S(=O)(=O)/N=C2\C=C(Nc3cccc(C(=O)O)c3)C(=O)c3ccccc32)c(C)c1	6.4	-0.6	13	0.9	·	·	·
COc1ccccc1NC(=O)CCSc1nnc(-c2ccc(O)cc2)o1	-1.6	0.2	-3	1.7	-1%	0.69	1.7
COC(=O)c1cc(C(=O)N2CCc3ccccc32)cc([N+](=O)[O-])c1	-6.6	1.2	2	1.8	2%	·	·
O=C(Nc1ccc(F)cc1F)N1CCCC(c2nc(-c3ccc(F)cc3)no2)C1 (stereo unspecified)	1.9	-0.5	1	3.5	7%	0.7	1.6
O=C(Cn1cc2c(n1)CCCCC2)Nc1c(F)c(F)cc(F)c1F	-1.8	0.2	8	-1.7	24%	0.72	0.8
O=C(O)c1ccccc1Nc1cccc(C(F)(F)F)c1	-19	·	-6	-5.0	-5%	0.66	0.3
COC(=O)c1cc(C#N)c(N2CCN(C)CC2)nc1C	1.5	-0.5	1	-3.9	11%	0.65	-1.5
O=C(CCC(=O)c1ccc(Oc2ccccc2)cc1)Nc1cccc(Cl)c1	2.1	-0.6	8	0.5	·	0.72	-6.5
C=CCN(C(=O)Nc1ccccc1)C1CC(=O)N(c2ccc(OC)cc2)C1=O (stereo unspecified)	0.7	1.1	-1	2.0	1%	0.66	0.3
Fc1ccc(/C=N/NC2=Nc3cccc4cccc2c34)cc1	-1.9	-2.5	29	21	-1%	·	·
CC(C)C(C(=O)NCC1CCCO1)N(C(=O)CNS(=O)(=O)c1ccccc1)C1CCCCC1 (stereo unspecified)	-1.7	-0.1	-2	0.7	·	0.69	0.2
COC/C=C/C1=CC2=CC(=O)C(C)(OC(=O)c3cnc4ccccc4n3)C(=O)C2=CN1c1ccccc1 (stereo unspecified)	2.9	0.0	·	·	2.7µM*	·	1.0
CC1CC(C(F)(F)F)n2ncnc2N1 (stereo unspecified)	9.2	0.4	1	-0.3	-2%	0.72	-5.9
O=C(NCCCN1CCCC1=O)c1cc(-c2ccc(F)cc2)nc2ccccc12	-2.6	-0.1	-3	-3.3	3%	0.69	-23
N=C1/C(=C/c2ccc(-c3cccc(C(=O)O)c3)o2)C(=O)N=C2SC(CC(=O)N3CCOCC3)=NN12	-6.6	-2.6	14	-20	?	0.72	24*
CNC(=O)/C(C#N)=C/c1cn(CC(=O)NCc2ccco2)c2ccccc12	1.8	0.5	-6	-3.8	1%	0.7	-7.9
Cc1ccc(Cl)c(OCC(=O)NC2CCN(Cc3ccccc3)CC2)c1	2.4	-0.3	-2	-2.6	5%	0.65	5.6
CC(C#CCN1CCCCC1)OCCOCc1ccccc1 (stereo unspecified)	0.4	-0.8	10	2.1	6%	0.69	-3.1

Rewritten field by field: entries from further up.
canonical_smiles: CNC(=O)/C(C#N)=C/c1cn(CC(=O)NCc2ccco2)c2ccccc12
  LANA-H2B inh = 1.8	A1 inh = 0.5	B2AR ag = -6	HNF4A DNA FP = -3.8	Vif TR-FRET = 1%	E coli growth = 0.7	UCH37 DUB inh = -7.9

canonical_smiles: CC1CC(C(F)(F)F)n2ncnc2N1 (stereo unspecified)
  LANA-H2B inh = 9.2	A1 inh = 0.4	B2AR ag = 1	HNF4A DNA FP = -0.3	Vif TR-FRET = -2%	E coli growth = 0.72	UCH37 DUB inh = -5.9

canonical_smiles: CCC1CCCCN1CCCNC(=O)c1cc2c(=O)oc3ccc(C)cc3c2s1 (stereo unspecified)
  LANA-H2B inh = 0.4	A1 inh = 0.1	B2AR ag = 24	HNF4A DNA FP = 6.7	Vif TR-FRET = ·	E coli growth = 0.66	UCH37 DUB inh = -26

More entries:
SMILES	LANA-H2B inh	A1 inh	B2AR ag	HNF4A DNA FP	Vif TR-FRET	E coli growth	UCH37 DUB inh
Nc1cc(=O)[nH]c(SCc2nnnn2-c2ccc(Cl)cc2)n1	-0.1	0.2	-38	2.6	5%	0.63	7.1
CCc1cccc(OCC2Cn3c(nc4c3c(=O)[nH]c(=O)n4C)O2)c1 (stereo unspecified)	2.0	0.8	0	-0.3	·	0.7	-1.3
CC(C)OC(=O)C(CC(=O)O)N1CCOCC1 (stereo unspecified)	6.0	-2.5	1	-1.2	-1%	0.7	2.6
Cc1cc(C)c(C(=O)CSc2nnc(N)s2)cc1C	8.7	-1.0	8	-4.7	-4%	0.69	2.9
C#CCOCCOCCOCCNc1nc(N2CCN(C(=O)[C@H](CCC(=O)O)n3cc(C(N)Cc4ccc(O)cc4)nn3)CC2)nc(N2CCN(C(=O)[C@H](Cc3cc4ccccc4[nH]3)n3cc(C(N)[C@H](C)CC)nn3)CC2)n1 (stereo partly specified)	-5.0	0.2	0	-2.0	-7%	·	5.0
COc1ccc(N2CCN(S(=O)(=O)c3cn(C)c(=O)n(C)c3=O)CC2)cc1	3.7	-0.9	10	-1.5	-3%	0.65	0.1
COc1ccccc1N1CCN(CC(O)c2ccccc2)CC1 (stereo unspecified)	4.0	0.1	7	1.0	·	0.71	0.7
COc1cc(NC(=O)CSc2ccc(-c3ccccn3)nn2)cc(OC)c1	0.9	0.3	-8	2.6	·	0.7	2.0
O=C(CCN1CCCCCC1)Nc1ccc(F)c(F)c1	2.6	1.0	1	2.4	4%	0.71	0.7
Cc1ccccc1NC(=O)c1sc2nc3c(c(-c4ccco4)c2c1N)CCC3	2.9	-0.2	12	5.0	?	0.71	-2.9
CCCC(C)NC(=O)Cc1ccccc1[N+](=O)[O-] (stereo unspecified)	7.8	1.4	22	-4.3	1%	0.68	3.7
COc1ccc(COC(=O)C2=C(C)NC(=O)NC2c2cccc(Br)c2)cc1 (stereo unspecified)	0.7	0.3	8	0.1	·	0.71	2.6
COc1ccc(CCN2C(=O)C3C4CC(C5C(C(=O)N/N=C\c6ccc(Cl)cc6)=NOC45)C3C2=O)cc1OC (stereo unspecified)	1.0	-0.6	-4	5.5	1%&-9%	·	·
CCOCCCNC(=O)CC1Oc2ccc(C)cc2NC1=O (stereo unspecified)	0.4	-0.6	-4	2.8	25%	0.75	3.8
O=C(COC(=O)COc1ccccc1)Nc1ccc2c(c1)OCCO2	2.3	-2.0	0	-1.0	-3%	0.67	0.9
Nc1nnc(N2CCCCCC2)s1	-0.2	-0.6	6	2.3	6%	0.68	1.7
CCC(CC)C(=O)c1c[nH]c(C(=O)NCc2ccccc2OC)c1	-0.4	1.8	-1	1.5	-12%	0.68	-2.4
Cc1c(F)cccc1NS(=O)(=O)c1ccc2c(c1)c(=O)n(C)c(=O)n2C	1.5	-0.8	0	-0.1	-4%	0.71	0.3
O=C1CC(N2CCN(C(c3ccccc3)c3ccccc3)CC2)C(=O)N1Cc1ccc(N2CCCC2=O)cc1 (stereo unspecified)	2.9	0.2	5	-1.2	-1%	0.71	-0.8
Cc1ccc(S(=O)(=O)NNC(=O)c2cc3cc4ccccc4nc3s2)cc1	1.2	-0.4	-19	1.2	1%	0.65	-3.1
Cc1nn(CC(=O)Nc2ccc(C(=O)N3CCCCC3)cc2)c(=O)c2ccccc12	-3.0	0.4	5	1.8	0%	0.72	0.0
CC1CCN(C(=O)COC(=O)c2ccc3ccccc3n2)CC1	-3.5	0.7	34	2.9	·	0.69	-0.4
O=C(NCc1nc2ccccc2[nH]1)C1=C[C@@H](c2ccc(C(F)(F)F)cc2)C[C@@H](OCCCCO)O1	-2.3	-0.6	0	-1.5	·	·	1.4
O=C(Oc1ccc([N+](=O)[O-])cc1)c1cncc(Br)c1	-2.3	-0.5	-3	1.1	-8%	0.63	6.6
CCOC(=O)N1CCC(Nc2cc(C)nc3c(-c4ccccc4OC)c(C)nn23)CC1	-1.8	0.7	3	3.6	4%	0.72	0.0
New compounds follow
SMILES	LANA-H2B inh	A1 inh	B2AR ag	HNF4A DNA FP	Vif TR-FRET	E coli growth	UCH37 DUB inh
COc1ccc(Cl)cc1-n1c(=S)sc2c(=O)n(-c3ccc(F)cc3)c(SCC(=O)O)nc21	0.3	0.5	2	2.0	4%	0.73	7.3
COc1ccc(Nc2nc(N3CCOCC3)nc(N3CCOCC3)n2)c(OC)c1	2.5	0.3	-3	3.1	·	0.69	-0.9
Cc1ccc(S(=O)(=O)NCC(C)n2nc(C)cc2C)cc1 (stereo unspecified)	0.7	0.8	0	2.1	1%	0.69	1.4
COc1ccccc1N(CC(=O)Nc1ccc2c(c1)OCO2)S(=O)(=O)c1ccccc1	-0.9	-0.1	2	-2.1	0%	0.67	2.2
CC/C(=N\NC(=O)c1cc(C)nc2ccccc12)c1ccc(C)s1	-2.5	0.1	0	-1.5	-6%	·	·
Cc1nn(C)cc1NC(=O)c1nn(C)cc1[N+](=O)[O-]	-5.2	0.2	-2	0.3	1%	·	1.2
COc1ccc(CCNC(=S)N2CCN(S(=O)(=O)c3ccc(F)cc3)CC2)cc1	·	-0.3	-7	3.8	2%	0.73	0.5
C/C(N)=C(/C#N)C(=O)CSc1nc2ccccc2c(=O)n1-c1ccc(C)cc1	-5.1	0.2	·	·	6%	0.69	1.6
Cc1ccc(S(=O)(=O)CCC(=O)N2CCN(c3ccccc3O)CC2)cc1	0.0	-1.6	7	6.5	·	0.69	-0.1
C[C@@]12C(=O)OC(=O)[C@]1(C)C1CCC2O1	-7.0	3.2	81*	4.7	·	·	·
O=C(Nc1ccc(S(=O)(=O)N2CCc3ccccc3C2)cc1)C1CCCO1 (stereo unspecified)	-5.7	-0.2	2	-3.2	-3%	0.67	2.8
O=C(CC1Nc2ccccc2NC1=O)Nc1cc(Cl)cc(Cl)c1 (stereo unspecified)	-5.5	-0.3	5	3.5	-2%	0.71	-46
COc1cccc(OC)c1C(=O)Nc1ccccc1N1CCCCC1	-0.9	0.1	13	1.5	·	0.62	-0.2
CC(=O)N1CCN(c2ccc(NC(=S)NC(=O)COc3ccc(C(C)(C)C)cc3)cc2)CC1	-3.3	-0.9	12	3.3	1%	0.69	-3.6
COc1cccc(Cn2cccc(NC(=O)Nc3cccc(C#N)c3)c2=O)c1	2.9	-2.1	·	·	·	0.72	2.3
O=C(c1cccs1)N1CCCC(c2nc(-c3ccc(F)cc3)no2)C1 (stereo unspecified)	0.5	-0.1	0	-1.1	-5%	0.69	3.4
O=C(O)C1=CC[C@@H](c2ccc(Cl)cc2)N(S(=O)(=O)c2ccc(Cl)cc2)[C@H]1c1ccc(F)cc1	1.6	-1.0	3	-4.1	·	·	2.8
